# Anaer choline gr – growth inhibitors of anaerobic choline-fed gram-negatives, minimal medium, absorbance; Gram-negative bacterium anaerobic choline minimal medium; stronger effect = lower value; many inactives read as strong as hits in the columns shown; calls only; 0.2% of 55,000 active;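 active = growth z-score on choline under -2 at 7 or 20 h with little or no fall on glycerol, limits in tiers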;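 also: stock transfer was 300 nL into about 50 µL; the organism is E. coli; final concentration not given here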
# Anaer choline gr early – recorded beside Anaer choline gr, whose call it bears; z-score; measured here: choline growth z-score, timepoint 1;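 score of optical density at 7 h as mean of two plates; lower means less growth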
# * marks the source's active call; other numbers are inactive results; i = inactive; & = joins results of further samples.
canonical_smiles	Anaer choline gr	Anaer choline gr early
O=C(NC1CCCCC1)n1ncc2ccccc21	i	-1.06
CN(C)CCCc1cc(C(=O)Nc2ccc(-c3ccncc3)cc2)ccc1O	i	-0.32
O=c1nc(SCc2ccc(Cl)cc2)c2c(n1C1CCCCC1)CCC2	i	0.6
O=c1c2ccccc2n2c(=O)n(Cc3cccc(F)c3)nc2n1CCc1ccccc1	i	-0.2
CCOC(=O)CNC(=O)c1sc2ncccc2c1-n1cccc1	i	-1.31
Cc1ccc2nc(-c3ccccc3NC(=O)c3cccc(N(C)C)c3)ccc2c1	i	1.26
O=C(c1cc2c(s1)CCCC2)N1CCCN(c2nnc3ccccn23)CC1	i	-0.43
Cc1noc(C)c1C1CCCN1C(=O)c1cc(-c2ccc3c(c2)OCO3)on1 (configuration not stated)	i	-0.57
COc1ccc(-c2nonc2NC(=O)C(C)Oc2ccc(Cl)c(C)c2)cc1C (configuration not stated)	i	-0.33
O=c1c(S(=O)(=O)c2cc(F)cc(F)c2)c[nH]c2cc(Cl)c(F)cc12	i	-0.88
Cc1cc(C)n2ncc(-c3ccc(C)c(S(=O)(=O)NCCCN4CCN(C)CC4)c3)c2n1	i	-1.8
CCC(SC1=NS(=O)(=O)c2ccccc2N1)C(=O)OC (configuration not stated)	i	-0.78
CC(C)c1ccc(NC(=O)C(c2ccccc2)N(C)C(=O)Cc2c[nH]c3ccccc23)cc1 (configuration not stated)	i	-0.15
O=C(Nc1ccccc1Cl)c1nc2nc(-c3ccc(F)cc3)cc(C(F)(F)F)n2n1	i	0.5
Cc1cccc(-c2nn3c(N(C)C)cc(C)nc3c2C)c1	i	0.9
O=C(NC1CC(=O)N(c2ccc(Cl)cc2)C1)C(=O)c1c[nH]c2ccccc12 (configuration not stated)	i	-1.93
Cc1cc(C)cc(Nc2ncnc3[nH]ncc23)c1	i	-2.26
COc1ccc(C(=O)Nc2ccc3c(c2)NC(=O)CO3)cc1	i	0.12
CCn1ncc(NC(=O)Cc2ccccc2C)c(N2CCCCC2)c1=O	i	0.22
Cc1ccc(-c2nc3cccnc3n2CCNS(=O)(=O)c2ccc3c(c2)oc(=O)n3C)cc1	i	-0.96
O=C(Nc1ccc2c(c1)OCCO2)Nc1nc(-c2ccccc2)cs1	i	1.13
Cc1ccc(C)c(N2CCN(Cc3nc4ccccc4[nH]c3=O)CC2)c1	i	-0.07
COc1cc(NC(=O)CN2C(=O)C(C)(C)c3ccccc32)cc(OC)c1	i	-0.87
COC(=O)c1sccc1NC(=O)Cn1c(C)cc(C)c(-c2nc(-c3cccc(Cl)c3)no2)c1=O	i	0.37
O=c1cc(O)cc(/C=C/c2ccc(O)c(O)c2)o1	i	-0.71
CC(C)(C)C(=O)Nc1nnc(C2CC(=O)N(c3ccc(F)cc3)C2)o1 (configuration not stated)	i	-0.86
Cc1ccc(-n2c(=O)c3c(cnn3C)n(CC(=O)Nc3ccc(C)cc3C)c2=O)cc1	i	0.51
Cc1cccc(Cc2nc(CCNC(=O)c3ccc(Br)cc3)n[nH]2)c1	i	-0.93
O=C1CN(Cc2ccccc2F)S(=O)(=O)c2ccccc2N1Cc1ccccc1F	i	0.09
Cc1nc(Nc2ccc(NS(=O)(=O)c3ccc4c(c3)OCCO4)cc2)cc(N2CCCC2)n1	i	0.26

# A different layout for some results above:
Cc1ccc(-n2c(=O)c3c(cnn3C)n(CC(=O)Nc3ccc(C)cc3C)c2=O)cc1
  Anaer choline gr = i	Anaer choline gr early = 0.51

Cc1nc(Nc2ccc(NS(=O)(=O)c3ccc4c(c3)OCCO4)cc2)cc(N2CCCC2)n1
  Anaer choline gr = i	Anaer choline gr early = 0.26

# Sorted by the number under Anaer choline gr early (smallest number first): some entries from above.
canonical_smiles	Anaer choline gr early
Cc1cccc(Cc2nc(CCNC(=O)c3ccc(Br)cc3)n[nH]2)c1	-0.93
O=c1cc(O)cc(/C=C/c2ccc(O)c(O)c2)o1	-0.71
Cc1ccc(-n2c(=O)c3c(cnn3C)n(CC(=O)Nc3ccc(C)cc3C)c2=O)cc1	0.51

# Continued.
canonical_smiles	Anaer choline gr	Anaer choline gr early
Cc1nn(-c2ccc3nnc(C)n3n2)c(C)c1CCC(=O)N1CCCC1	i	-0.36
C[n+]1ccccc1/C=N/O	i	0.71
CCSc1nnc(-c2nn(C)c3c2CN(S(=O)(=O)c2ccc4c(c2)CCCC4)CC3)n1CC	i	0.79
O=C(Nc1cccc(Cl)c1)c1cnn(-c2ccccc2)c1	i	-1.1
CCOc1ccc(CNC(=O)Cn2cc(-c3nnc(CC)o3)c3ccccc32)cc1	i	3.05
O=C(NC1CCCC1)c1ccc(N2C(=O)CCS2(=O)=O)cc1Cl	i	0.33
O=C(Nc1ccc(Br)cc1F)C1CCCN(c2nc3ccccc3nc2C(F)(F)F)C1 (configuration not stated)	i	2.19
Cc1ccc(NC(=O)Cn2cnc3c(sc4ncccc43)c2=O)c(C)c1	i	-0.37
O=C1C(=O)N(C2CCN(S(=O)(=O)c3ccc(F)cc3)CC2)CCN1Cc1cccc(F)c1	i	0.13
O=c1c2c(nc3nc(CNc4ccccc4)[nH]n13)CCC2	i	-0.2
O=C(Nc1ccc2c(c1)OCCO2)c1ccc(-c2cc(NC3CCCCC3)ncn2)cc1	i	0.07
C=CCn1c(=O)c2ccc(C(=O)NCc3ccc4c(c3)OCO4)cc2n(CC(=O)Nc2ccc(F)cc2F)c1=O	i	-1.28
CCc1ccc(NC(=O)N2CC(C)Oc3ccc(C)cc32)cc1 (configuration not stated)	i	-0.86
CNC(=O)CSc1c(COC)cnc2c1c(=O)n(C)c(=O)n2C	i	-0.43
O=S(=O)(Nc1cc(F)cc(F)c1)c1ccc(-c2nnc(C3CC3)o2)o1	i	0.65
CCc1cc(C2CCCN2S(C)(=O)=O)on1 (configuration not stated)	i	0.2
COc1cc(OC)c(NC(=O)Cn2cc(C(=O)c3ccncc3)c(=O)c3cc(Cl)ccc32)cc1Cl	i	-0.24
Cc1cc(C2CCCN2C(=O)Nc2ccc3c(c2)OCCO3)no1 (configuration not stated)	i	-0.58
Cc1ccc(N2C(=O)c3ccncc3C2=O)c(C)c1	i	-1.24
COC(=O)CC1Oc2ccc(C)cc2NC1=O (configuration not stated)	i	-1.49
CCn1nccc1C1CCCN1C(=O)Nc1cc(C)cc(C)c1 (configuration not stated)	i	0.48
CCC(C)NC(=O)NC1CCN(C2=NS(=O)(=O)C(c3ccc(F)cc3)=C2C)CC1 (configuration not stated)	i	0.05
O=C(Nc1ccc(Cl)cc1)c1ccc(C2Nc3ccccc3S(=O)(=O)N2)cc1 (configuration not stated)	i	0.95
Cc1ccc(-n2ccc(=O)c(-c3nc(-c4cccc(Cl)c4)no3)n2)cc1	i	-4.53
O=C(NCCN1CCCC1)c1cc(-c2ccccn2)nc2ccccc12	i	-0.46
CC(C)(C)NC(=O)N1CC=C(C(=O)NC2CC2)CC1	i	0.33
Cc1ccccc1-c1cc2n(C)c(C)c(CCC(=O)NCc3ccccn3)c(=O)n2n1	i	-0.47
COc1cc(C2C3=C(CC(c4ccccc4)CC3=O)Nc3ncnn32)ccc1O (configuration not stated)	i	1.32
CC(C)(C)C(=O)N1CCCC1c1nc2ccccc2s1 (configuration not stated)	i	-0.91
O=C1C2N=NN(c3cccc(F)c3)C2C(=O)N1c1ccccc1 (configuration not stated)	i	-0.12

# (listing goes on)
# Order of results – Anaer choline gr | Anaer choline gr early
CC(=O)O[C@]1(C(C)=O)CCC2C3C=C(C)C4=CC(=O)CC[C@]4(C)C3CC[C@@]21C (some centres not stated)
  i | 0.52
COC(=O)c1c(NC(=O)N2CCCC2c2ccc(Cl)cc2)sc2c1CCCC2 (configuration not stated)
  i | 1.41
CN(C)S(=O)(=O)c1ccc(-c2nnc(C(=O)NCc3ccc(F)cc3Cl)o2)cc1
  i | -0.08
CCn1ncc(C2CC(=O)Nc3c2c(C)nn3-c2nc3ccc(OC)cc3s2)c1C (configuration not stated)
  i | 0.29
CCc1nc(CN2C(=O)COc3ccc(S(=O)(=O)NCCc4sccc4C)cc32)no1
  i | -1.52
Cc1cccc2c(C(=O)Nc3cccc4nsnc34)cc(-c3ccccc3)nc12
  i | -0.29
COc1ccc(NC(=O)CN2C(=O)C(C)(C)c3cc(S(=O)(=O)N4CCCC4)ccc32)cc1OC
  i | -0.19
CCSc1nccn2nc(-c3ccc(Br)cc3)cc12
  i | 2.61
CCc1nn2c(=O)cc(CN(CC)c3ccccc3)nc2s1
  i | -0.06
Cc1cc(C)cc(NC(=O)Nc2cccc(CCc3nc4ccccc4n3C)c2)c1
  i | 1.15
Cc1cc(C)cc(N2CC(C)Cn3c2nc2c3c(=O)n(CC(=O)O)c(=O)n2C)c1 (configuration not stated)
  i | 0.7
COc1cccc(Sc2nc3ccccc3n3c(=O)n(CC(=O)NC4CCCC4)nc23)c1
  i | 0.86
Cc1nn(C)c(C)c1CCN(C)C(=O)Nc1ccc(Br)cc1
  i | -2.71
Cc1c2cnn(CC(=O)N3CCC(C)CC3)c(=O)c2c(C)n1Cc1ccccc1Cl
  i | 0.38
CCOC(=O)c1c(C)[nH]c(C)c1S(=O)(=O)N1CCC(C(=O)Nc2ccc(Cl)cc2)CC1
  i | 0.48
COc1ccc(OCc2nc(-c3ccc(NS(=O)(=O)c4ccc(Cl)cc4)cc3)no2)cc1
  i | 0.42
O=C(c1ccc(F)cc1)N1CCC(c2nc(-c3ccc(F)cc3)no2)CC1
  i | -0.82
CCCn1c(=O)c2cc(Cl)ccc2n2c(=O)n(CC(=O)Nc3ccc4c(c3)OCO4)nc12
  i | 0.41
CCC(C)(C)NS(=O)(=O)c1cc(-c2nc(C)cs2)n(CC(=O)N2CCCC2)c1
  i | 0.81
c1ccc(C(NCc2cccnc2)(c2ccccc2)c2ccccc2)cc1
  i | 0.22&0.39
C=CCOc1cccc(C2Nc3ccc(C)cc3[C@H]3OCC[C@@H]23)c1 (some centres not stated)
  i | 0.53
Cc1cccc(C(=O)Nc2c(C)nc3sc(C)cn3c2=O)c1
  i | 0.07
CC(C)CCn1c(=O)c2sccc2n2c(SCC(=O)NC3CCCCC3)nnc12
  i | 0.5
CCOC(=O)c1c(C)c(S(=O)(=O)Nc2cc(Cl)c(OC)cc2OC)c(C)n1C
  i | -1.06
CCOc1ccc(NC(=O)CN2CCN(Cc3ccccc3Cl)S2(=O)=O)cc1
  i | 0.7
CCOC(=O)c1c(C)c(S(=O)(=O)N2CCOCC2)c(C)n1C
  i | 0.47
COc1ccc(C2CC(=O)N(c3ccccc3)C(=O)C2)cc1OC
  i | -0.06
CC(=O)Nc1cc2c(cc1N1CCCCC1)n(C)c(=O)c(=O)n2C
  i | -1.22
COc1ccc(C(=O)N(Cc2ccc(N(C)C)cc2)CC2CCCO2)cc1 (configuration not stated)
  i | 0.04
COc1cccc(NC(=O)Nc2ncc(-c3ccccc3)n2C)c1
  i | 0.95
Cc1c(C)n(-c2ccccc2)c2nc(C(=O)Nc3ccc(F)cc3Cl)nc(N3CCCC3)c12
  i | 0.77
O=C(CSc1nccn2nc(-c3ccc(Cl)cc3)cc12)Nc1cc(F)ccc1F
  i | -1.51
O=S(=O)(c1cccn2c(SCc3cccc(Cl)c3)nnc12)N1CCCC1
  i | -0.01
O=C(NCC1CCCO1)N1CCOc2ccccc21 (configuration not stated)
  i | -0.65
Cc1ccc(C2C3=C(CC(C)(C)CC3=O)Nc3ccccc3N2S(C)(=O)=O)cc1 (configuration not stated)
  i | -0.34
CN(C)CCCOC(=O)c1cnn2c(C(F)(F)F)cc(-c3ccccc3)nc12
  i | 0.74
CC1(C)CC(=O)C2=C(C1)Nc1ccccc1N(C(=O)NCC1CCCO1)C2c1ccccc1 (configuration not stated)
  i | -0.13
Cc1nc(COP(=O)(O)O)cc(CN(CCN(CC(=O)O)Cc2cc(COP(=O)(O)O)nc(C)c2O)CC(=O)O)c1O.[Mn]
  i | 0.49
CCc1nn2c(=O)cc(CSc3nnc(-c4ccc5c(c4)OCO5)o3)nc2s1
  i | -0.81
COC(=O)c1ccc(COc2cccc3ccc(N4CCC(C(N)=O)CC4)nc23)cc1
  i | 1.89
CC1(C(=O)NC2CCCCC2)Cn2c(cc3ccccc32)C(=O)N1Cc1cccnc1 (configuration not stated)
  i | 0.69
NC(=O)c1cnn2c3c(cnc12)CCCCCC3
  i | 0.41
CCOC(=O)c1nc2ccccc2nc1N1CCN(c2ccccn2)CC1
  i | -1.45
CCNS(=O)(=O)c1c(C)[nH]c(=O)[nH]c1=O
  i | 0.84
CCOCCCNCc1ccc(-c2ccc(Cl)cc2)o1
  i | -0.69
O=c1[nH]c(SCc2c(F)cccc2Cl)nc2nc[nH]c12
  i | 0.56
O=C(CN1CCN(Cc2ccc(F)cc2Cl)S1(=O)=O)N1CCCC1
  i | -0.68
CCOc1ccc(N2C(=O)CN(CCN(C)C)[C@H]3CS(=O)(=O)C[C@H]32)cc1
  i | 0.7
O=C(Cn1nc2c3ccccc3ncn2c1=O)Nc1ccccc1Cl
  i | -0.15
CCN(Cc1ccccc1)c1ncc(NS(=O)(=O)c2ccc(OC)cc2)cc1C(=O)O
  i | 0.06

# Profiles as entered above:
# CCN(Cc1ccccc1)c1ncc(NS(=O)(=O)c2ccc(OC)cc2)cc1C(=O)O is listed with Anaer choline gr = i; Anaer choline gr early = 0.06
# CCOCCCNCc1ccc(-c2ccc(Cl)cc2)o1 is listed with Anaer choline gr = i; Anaer choline gr early = -0.69
# O=C(CN1CCN(Cc2ccc(F)cc2Cl)S1(=O)=O)N1CCCC1 is listed with Anaer choline gr = i; Anaer choline gr early = -0.68

# (more compounds)
# Order of results – Anaer choline gr | Anaer choline gr early
Cc1ccc(S(=O)(=O)c2cnc(N3CCN(c4ccccc4Cl)CC3)nc2N)cc1
  i | 0
CSc1sc(C)cc1-c1nsc(=O)o1
  i | 1.22
O=C(NCCOc1ccccc1)c1nc(-n2cnnc2)ccc1Br
  i | -0.04
Cc1nc2ccccc2c2c1C(=O)N(C(c1ccccc1)c1ccccc1)C2=O
  i | 0.44
Cc1nn(-c2ccc3nncn3n2)c2c1C(c1ccc(OCC(C)C)cc1)CC(=O)N2 (configuration not stated)
  i | -1.8

# Screens from PubChem.

# Only part of the results is shown (hit frequency here may not be typical).
